ALR inh = blocks human ALR sulfhydryl oxidase activity; hit rate 3.8% among 290,000; P55789; inhibition, % (test concentration not listed); purified ALR, DTT oxidation, H2O2 HRP-luminol luminescence;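 active = mean and each replicate at 75% or more; inconclusive = only one of the two met; inactive = neither met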;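 note: stock transfer was 7.5 nL into about 7.5 µL; 0% = neutral wells and 100% = wells with inactivated enzyme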
Target sequence (P55789 whole entry, looked up): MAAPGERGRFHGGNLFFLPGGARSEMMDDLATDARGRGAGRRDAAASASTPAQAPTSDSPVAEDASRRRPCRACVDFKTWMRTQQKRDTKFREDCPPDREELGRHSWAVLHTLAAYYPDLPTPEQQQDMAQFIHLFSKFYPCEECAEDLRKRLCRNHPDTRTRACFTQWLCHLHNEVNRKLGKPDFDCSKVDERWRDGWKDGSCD
E coli growth = blocks Escherichia coli growth. OD600 absorbance (no concentration beside the values). hit rate 0.21% among 330,000. OD600, 23 h; stronger effect = lower value. AID 1053175;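 active = OD600 absorbance below the run mean of sample wells minus 3.6 SD, in any replicate, cut at about 0.56 in these data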;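 note: stock transfer was 300 nL into about 60 µL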
MLL AF4-AF9 inh = blocks AF4 peptide binding to human AF9. inhibition, % at 10 µM. P42568. hit rate 0.47% among 350,000. AlphaScreen, biotin-AF4 peptide binding to FLAG-AF9;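 active = every replicate reaching a set inhibition limit, whatever the replicate mean, cut at about 25% in these data; inconclusive = mean inhibition reaches that limit but some replicates miss it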;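 note: 0% = plate neutral control median and 100% = total signal loss; the record names both 10 and 1 µM as test concentration; the first replicate is given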
Target sequence (P42568 whole entry, looked up): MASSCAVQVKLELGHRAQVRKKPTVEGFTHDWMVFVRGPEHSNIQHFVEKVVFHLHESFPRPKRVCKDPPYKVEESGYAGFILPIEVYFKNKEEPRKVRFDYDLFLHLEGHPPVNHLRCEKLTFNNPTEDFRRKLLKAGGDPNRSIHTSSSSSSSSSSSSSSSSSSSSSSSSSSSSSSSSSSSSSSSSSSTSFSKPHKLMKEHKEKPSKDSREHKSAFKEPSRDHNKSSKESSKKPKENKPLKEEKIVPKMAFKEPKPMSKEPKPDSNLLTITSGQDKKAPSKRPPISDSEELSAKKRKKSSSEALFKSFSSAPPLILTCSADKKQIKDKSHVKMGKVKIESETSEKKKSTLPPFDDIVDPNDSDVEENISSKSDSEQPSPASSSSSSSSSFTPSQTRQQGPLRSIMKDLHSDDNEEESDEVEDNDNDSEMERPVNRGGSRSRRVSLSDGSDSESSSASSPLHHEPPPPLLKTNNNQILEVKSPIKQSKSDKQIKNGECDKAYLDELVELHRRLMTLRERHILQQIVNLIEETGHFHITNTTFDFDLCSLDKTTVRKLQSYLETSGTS
Vif A3G = inhibitors of Vif binding to APOBEC3G peptide, primary screen, biochemical, TR-FRET, GST-Vif 1-94, biotin-A3G peptide, dose response retest (AID 1117319); TR-FRET GST-Vif / biotin-A3G peptide binding; higher % means a stronger effect; test concentration not given here; strong numbers were not always called active; inhibition, %; hits with a dose series show IC50 in µM; hit rate 0.57% among 260,000;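 active = above the screen mean plus three standard deviations and confirmed in dose response; inconclusive = results disagree or hit not tested in dose response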;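 note: Vif residues 1-94 fused to GST binding biotinylated APOBEC3G peptide 110-148; 0% = full assay without inhibitor and 100% = GST in place of GST-Vif; retest series ran down from 100 µM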
Ecoli rRNA inh = selective bacterial rRNA inhibition in E. coli | E. coli WT GFP vs humanized-ribosome RFP mutants, fluorescence, 24 h; stronger effect = lower value; DMSO median 0, no signal -100 | hit rate 1.6% among 350,000 | GFP signal change (wild-type ribosome), % (concentration not given with the values);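 active = significant combined selectivity score with lowered wild-type GFP, culture density cut under 30%, mutant RFP and density less affected; inactive = any of these conditions unmet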; note: one replicate is shown; some compounds called inactive have numbers as strong as hits
HNF4A DNA FP = change in binding of human HNF4 alpha to DNA. P41235. HNF4a-FITC DNA binding, fluorescence polarization, 1 h. hit rate 0.3% among 360,000. AID 1224865. activity change, % at 10 µM; in the data active = activity change above about 30%, passing the limit was not always enough;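 note: controls were the assay level and a saturating level of protein; the project sought stronger binding though the title names inhibitors; some compounds called inactive have numbers as strong as hits; positive values seem to mean higher polarization but the record does not say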
FGF22 binding = FGF22 (human) thermal shift binding; recombinant FGF22 thermal shift, SYPRO orange fluorescence; percent of sucrose octasulfate shift, DMSO zero; calls only at 9.99 µM; hit rate 1.5% among 340,000;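 active = melting point raised past a set limit in the mean and every replicate; inconclusive = no clear call; three in four hits are not shown here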
Target sequence (Q9HCT0 whole entry, looked up): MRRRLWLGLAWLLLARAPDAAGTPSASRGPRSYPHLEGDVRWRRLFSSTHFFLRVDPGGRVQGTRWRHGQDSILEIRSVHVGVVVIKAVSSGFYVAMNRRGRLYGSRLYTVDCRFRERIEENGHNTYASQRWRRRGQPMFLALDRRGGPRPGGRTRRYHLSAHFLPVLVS
Ecoli rRNA inh OD600 = second read-out of Ecoli rRNA inh, no call of its own (marks repeat the call); OD600 change, %; measured here: OD600 growth;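 optical density of the mix in the first replicate; 0 = DMSO median and -100 = no signal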
Ecoli rRNA inh RFP = also measured in Ecoli rRNA inh; calls as there; RFP signal change, %; measured here: RFP humanized mutant strains;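 first replicate; 0 = DMSO median and -100 = no signal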
The depositor's hits bear a star; i = inactive; ? = inconclusive; · = no result given; + = active, no number. The list is partial; count on the stated rates, not on these rows.

canonical_smiles | ALR inh | E coli growth | MLL AF4-AF9 inh | Vif A3G | Ecoli rRNA inh | Ecoli rRNA inh OD600 | Ecoli rRNA inh RFP | HNF4A DNA FP | FGF22 binding
c1ccc(N(c2ccccc2)c2nc(N3CCCC3)nc(-n3ccnc3)n2)cc1 | -12 | 0.72 | · | 0% | · | · | · | -0.2 | ·
CS(=O)(=O)N1CCCCC1c1cc(C(=O)Nc2ccccc2)no1 (centres undefined) | · | · | -22 | · | 1 | -14 | 0.4 | 2.2 | i
Cn1cccc1/C=C(/C#N)C(N)=S | · | 0.67 | 7.4 | 32% | 13 | 11 | -0.3 | 3.1 | i
Cc1ccccc1OCC(=O)NCCNC(=O)c1ccccn1 | -3 | 0.7 | -4.8 | 2% | 3 | 7 | 0.3 | -4.7 | i
CO[C@H]1CN(C)C(=O)c2cc(NC(=O)C3CC3)ccc2OC[C@H](C)N(C(=O)c2ccccc2F)C[C@H]1C | · | · | 2.0 | · | -1 | 0 | -0.7 | · | i
COc1cccc(CN2CC(C(=O)NCCCCc3ccccn3)CCC2=O)c1 (centres undefined) | -14 | 0.74 | -2.7 | · | 7 | 5 | 2.7 | 2.0 | i
Cn1c(=O)n(Cc2ccccc2)c(=O)c2c1nc1n2CCCN1C1CCCCC1 | -13 | 0.65 | -2.2 | · | 2 | 4 | 1.5 | 2.4 | i
COc1cc(/C=N/NC(=O)c2c(-c3ccccc3)noc2C)cc(OC)c1OC | -2 | · | 1.7 | · | 2 | 8 | -2.4 | 4.0 | i
Cc1noc(C)c1NC(=O)Nc1ccc2c(c1)C(=O)N([C@@H](C)CO)C[C@@H](C)[C@@H](CN(C)C)O2 | · | · | -3.1 | · | 4 | 10 | 2.3 | · | i
O=C(Cn1c(=O)sc2ccccc21)Nc1ccc(O)cc1 | 7 | 0.66 | 0.2 | · | -6 | -2 | -6.2 | 4.3 | i
Brc1ccc2nc(CSc3ncn[nH]3)cn2c1 | 27 | 0.69 | · | -3% | · | · | · | -1.8 | ·
CC1=C(C(=O)N(C)C)CC(CC(=O)NCCCCc2ccccc2)C(=O)N1CCCN1CCCC1=O (centres undefined) | · | · | -0.2 | -1% | 8 | 5 | -0.7 | -0.6 | i
COc1cccc(NC(=O)CN2C(=O)C3(OCCCO3)c3ccccc32)c1 | 1 | 0.67 | -0.3 | -2% | · | · | · | 0.2 | i
Cc1ncc(CN2CCN(CCC(C)C)C(CCO)C2)s1 (centres undefined) | -1 | 0.71 | -1.1 | 5% | 16 | 9 | 0.7 | -5.1 | i
O=C(C[C@@H]1C=C[C@@H](NC(=O)C2CCOCC2)[C@@H](CO)O1)NCC1CC1 | · | · | -0.5 | · | 0 | 8 | -1.2 | · | i
Cc1c(N=C2NC(=O)C(CC(=O)Nc3ccc(Cl)cc3)S2)c(=O)n(-c2ccccc2)n1C (centres undefined) | -9 | 0.72 | · | -2% | · | · | · | -1.1 | ·
COc1ccc(NC(=O)Nc2ccc3c(c2)CC(=O)N([C@@H](C)CO)C[C@@H](C)[C@@H](CN(C)Cc2ccncc2)O3)cc1 | · | · | 1.0 | · | -3 | -1 | -0.5 | · | i
CCCCC1CC(CSC(=N)N)OC1=O (centres undefined) | -4 | 0.7 | · | ? | · | · | · | 2.5 | ·
CC(=O)c1ccc(NC(=O)CCNS(=O)(=O)c2ccccc2F)cc1 | 1 | 0.7 | -0.6 | · | 1 | 9 | 2.3 | 1.7 | i
CCC(C)c1ccc(NC(=O)C2CC3CCC2C3)cc1 (centres undefined) | -1 | 0.68 | -2.1 | · | -22 | -27 | -1.8 | -1.8 | i
COc1ccc(CCNS(=O)(=O)c2ccc(Br)s2)cc1 | -9 | 0.63 | 0.3 | · | -46 | -69 | -9.6 | 3.2 | i
CCn1c(SCc2ccccc2)nnc1-c1ccc(S(=O)(=O)N2CCCCC2)cc1 | -58 | 0.68 | · | 17% | · | · | · | -4.2 | ·
C[C@@H]1CCCCO[C@@H](CN(C)C(=O)C2CCCCC2)[C@H](C)CN([C@@H](C)CO)C(=O)c2cc(NS(=O)(=O)c3ccccc3)ccc2O1 | · | · | 0.4 | · | 1 | -10 | 3.5 | · | i
COc1ccccc1N1CCN(C(=O)c2ccc(-c3nc4ccccc4s3)o2)CC1 | · | 0.67 | 13 | · | -37 | -43 | 0.4 | 7.5 | i
O=C(C[C@H]1CC[C@@H]2[C@H](COC[C@H](O)CN2S(=O)(=O)c2cccc(F)c2)O1)Nc1ccccc1 | · | · | -2.5 | · | -2 | -3 | 1.1 | · | +
CCC(=O)N(C)C[C@H]1Oc2cc(-c3cccc(F)c3)ccc2S(=O)(=O)N([C@H](C)CO)C[C@@H]1C | · | · | 3.8 | · | -3 | -20 | 1.1 | · | i
CCN(CC)CC(=O)Nc1sc(C)c(C)c1C(=O)c1ccc(C)cc1 | 10 | 0.7 | 20 | -2% | -24* | -11* | -1.4* | 1.1 | i
COc1ccccc1CC(=O)NN1C(=O)c2ccccc2C1=O | -1 | 0.66 | -57 | 9% | 5 | -2 | 1.2 | 3.3 | i
CCC(=O)N(c1ccc(F)cc1)C1C=CS(=O)(=O)C1 (centres undefined) | 1 | 0.66 | · | 5% | · | · | · | -0.4 | ·
Cc1onc(-c2ccccc2)c1C(=O)N/N=C/c1c[nH]c2ccccc12 | 3 | · | 5.4 | -15% | -27 | -49 | -6.3 | -2.6 | i
CC(=O)Nc1c(C(=O)O)oc2ccccc12 | -3 | 0.7 | · | ? | · | · | · | -2.1 | ·
NC(=S)N/N=C/c1ccc(-c2cc(Cl)cc(Cl)c2)o1 | 2 | · | · | 24% | · | · | · | 14 | ·
O=c1[nH]c(C2CCCN(S(=O)(=O)c3ccccc3)C2)nc2c1nnn2Cc1ccccc1 (centres undefined) | · | 0.7 | · | 11% | · | · | · | 3.3 | ·
C=CCN(C(=O)CNS(=O)(=O)c1ccccc1)C(C(=O)NCCOC)c1ccncc1 (centres undefined) | 3 | 0.76 | · | -1% | · | · | · | -3.9 | ·
COC(=O)c1ccc(CNC(=O)COC(=O)c2cc(Cl)nc(Cl)c2)cc1 | · | 0.7 | 1.4 | 23% | 18 | 5 | 6.0 | 2.9 | i
O=C(Cc1coc2cc3c(cc12)CCC3)NCC1(N2CCCCC2)CCCCC1 | 5 | 0.64 | 5.9 | · | -4 | -13 | 0.7 | 4.3 | i
CC(NC(=O)c1ccc2c(c1)OCO2)C(c1cccs1)N1CCOCC1 (centres undefined) | -28 | 0.67 | · | · | · | · | · | -1.2 | ·
CCOC(=O)[C@]12CCC=C1N(CCC1=CCCCC1)C(=O)[C@H](CC(=O)NCc1cccc3ccccc13)C2 | · | · | 2.1 | · | · | · | · | 1.7 | i
O=C(Cc1ccccc1F)Nc1nc2ccccc2[nH]1 | 29 | 0.65 | -2.5 | 0% | 6 | 1 | -2.2 | 1.9 | i
COc1ccc2c3c(n(C)c2c1)[C@@H](CO)N(Cc1ccc(F)cc1)CC31CN(C)C1 | · | · | 3.9 | · | 4 | 7 | -2.3 | · | i
Cc1c(C(=O)N2CC3(CC(c4cccc(NC(=O)[C@H]5CCC(=O)N5)c4)=NO3)C[C@@H]2C(N)=O)cc([N+](=O)[O-])cc1[N+](=O)[O-] (some centres undefined) | · | · | 6.4 | 4% | 9 | 10 | 1.7 | 1.7 | i
Cc1ccc(-n2nc3c(N4CCC(C(=O)NCc5cccc(F)c5)CC4)nnc(C)c3c2C)cc1 | -2 | 0.72 | · | · | · | · | · | 1.0 | ·
CCCC(=O)Nc1ccc2c(c1)C(=O)N(C)C[C@@H](OC)[C@@H](C)CN(C(=O)CN(C)C)[C@H](C)CO2 | · | · | -2.4 | · | 1 | 2 | 0.7 | · | i
O=[N+]([O-])c1ccccc1OCCCN1CCOCC1 | -20 | 0.75 | 2.1 | 5% | 18 | 21 | -11 | -2.4 | i
CN(Cc1ccccc1)C(=O)NC1CCCCC1 | 34 | 0.73 | · | -3% | · | · | · | 4.6 | ·
CN(Cc1ccccc1)Cc1nc2c([nH]1)c(=O)n(C)c(=O)n2C | · | 0.66 | · | 11% | · | · | · | -1.4 | ·
COC(=O)C(CC(=O)c1ccc(C)cc1)n1nc(C)cc1C (centres undefined) | -5 | 0.71 | 6.4 | · | 4 | -1 | 0.0 | 0.9 | i
COc1ccc(OC)c2sc(NNC(=O)COc3ccccc3)nc12 | · | 0.66 | -1.4 | · | 5 | -10 | 3.7 | 3.8 | i
Cc1ccccc1CNC(=O)CCCC(=O)n1nc(C)c2ccccc21 | 1 | 0.61 | -0.6 | · | 6 | 9 | 1.0 | 1.2 | i
CCOC(=O)C(C)Sc1ncc(OC)c(Sc2ccc(Cl)cc2)n1 (centres undefined) | -5 | 0.7 | · | -1% | · | · | · | -0.8 | ·
O=C(Nc1ccncc1)c1ccc2ncsc2c1 | 98* | 0.67 | -4.8 | · | -4 | -7 | 2.4 | -2.1 | i
O=C1CC(N2CCC(O)CC2)C(=O)N1c1ccc(Br)cc1 (centres undefined) | · | 0.72 | · | 3% | · | · | · | 3.7 | ·
OCCN(CCO)CC(O)COCCC12CC3CC(CC(C3)C1)C2 (centres undefined) | -3 | · | · | ? | · | · | · | 1.4 | ·
OCCOCCOCCn1c2ccccc2c2ccccc21 | -49 | 0.69 | · | -1% | · | · | · | 0.6 | ·
O=C(C1CC(=O)N(c2ccc3c(c2)OCCO3)C1)N1CCN(Cc2ccccc2)CC1 (centres undefined) | -3 | 0.7 | -4.1 | -1% | 1 | 6 | 1.8 | -3.0 | i
CN(C)CCN1CCN(C2CN(C3CCCC3)S(=O)(=O)C2)CC1 (centres undefined) | · | · | -4.8 | · | 28 | 16 | 3.8 | 2.6 | i

Continued.
canonical_smiles | ALR inh | E coli growth | MLL AF4-AF9 inh | Vif A3G | Ecoli rRNA inh | Ecoli rRNA inh OD600 | Ecoli rRNA inh RFP | HNF4A DNA FP | FGF22 binding
CN1CCN(C(=O)C[C@H]2CC[C@H]3[C@@H](COc4ccc(NC(=O)C5CCC5)cc4C(=O)N3C)O2)CC1 | · | · | 1.7 | · | -2 | 7 | -3.5 | · | i
CC(C)C[C@H]1CN(CCCC[C@H]2CNC(=O)C(=O)N2Cc2ccccc2)C(=O)C(=O)N1CCc1ccc(O)cc1 | · | · | -2.5 | · | -3 | -1 | -3.0 | -1.0 | i
Nc1nonc1-n1nnc(C(=O)N/N=C/c2ccc(Br)cc2)c1CN1CCOCC1 | -34 | · | 7.6 | · | -7 | -4 | -0.6 | -63 | i
COc1ccc(NC(=O)CSC2=C(C#N)C(c3ccco3)C3=C(CCCC3=O)N2)c(OC)c1 (centres undefined) | 13 | 0.68 | · | 8% | -9 | -10 | -3.9 | 2.2 | ·
Nc1c(-c2cccs2)nc2ccccn12 | · | · | 1.9 | · | 5 | 1 | 3.3 | 4.6 | i
O=C(Cc1ccccn1)NCC[C@@H]1CC[C@@H](NS(=O)(=O)c2ccc(Cl)cc2)[C@H](CO)O1 | · | · | -2.6 | · | 0 | 3 | 1.7 | · | i
CC(C)NC(=O)NC(=O)CSc1ncccn1 | 0 | 0.66 | -2.9 | -4% | 14 | 9 | 2.2 | 0.1 | i

Screening results from PubChem.
